UUG fidelity: modulators of start codon recognition fidelity in yeast; hit rate 0.13% among 350,000; activity score, % at 18.7 µM; S. cerevisiae UUG-firefly luciferase reporter, luminescence/redox ratio;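 active = replicate mean at a twofold rise or more, about +100% in these data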;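 also: firefly luciferase made from a UUG start codon reports start codon fidelity; reporter light over untreated wells divided by growth signal over untreated wells; some hits fall short of that in this replicate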
eIF4H inh: inhibitors of RNA binding by human eIF4H; Q15056; eIF4H fluorescence polarization binding assay; inhibition, % at 35 µM; hit rate 0.94% among 290,000;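 active = 50% or more with normal probe brightness, or confirmed in later tests; inconclusive = above 50% with abnormal brightness, or retests that disagree; inactive = below 50% or failed in later tests; about a fifth of its hits are not listed in these tables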;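 also: calls also rest on retests at 20 µM and on dose response follow-up; 0% = protein and probe with vehicle and 100% = probe without protein; strong numbers were not always called active; many hits fall short of the cut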
Rce1 inh: yeast Ras-converting enzyme inhibition | calls only | Q03530 | hit rate 0.27% among 290,000 | AID 2563 | yeast membranes, quenched prenylated peptide cleavage fluorescence;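 active = fall in fluorescence gain of 50% or more versus controls, with final raw signal at or below 3038400; inconclusive = same 50% fall but final raw signal above 3038400; inactive = fall in fluorescence gain under 50%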;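 also: plate controls were neutral control wells for no effect and wells lacking membranes for full effect; tested at 10 µM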
Target sequence (Q03530 whole entry, looked up): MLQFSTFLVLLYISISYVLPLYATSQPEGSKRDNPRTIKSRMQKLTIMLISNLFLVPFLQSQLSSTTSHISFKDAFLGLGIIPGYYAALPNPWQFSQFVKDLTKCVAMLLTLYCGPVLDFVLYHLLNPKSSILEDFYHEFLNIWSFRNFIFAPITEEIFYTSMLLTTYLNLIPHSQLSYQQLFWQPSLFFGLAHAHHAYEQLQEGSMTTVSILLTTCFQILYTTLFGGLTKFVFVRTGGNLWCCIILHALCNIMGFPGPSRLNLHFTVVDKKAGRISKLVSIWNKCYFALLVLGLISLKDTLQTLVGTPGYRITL
PABP FP inh: PABP-poly(A) binding inhibition | inhibition, % at 35 µM | PABP-poly(A) RNA binding, fluorescence polarization | P11940 | AID 2014 | hit rate 1% among 290,000;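 active = 50% or more with normal probe brightness, or confirmed in later tests; inconclusive = above 50% with abnormal brightness, or retests that disagree; inactive = below 50% or failed in later tests; about a fifth of its hits are not listed in these tables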;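 also: calls also rest on retests at 20 µM and on dose response follow-up; controls were probe without protein and protein plus probe with vehicle; some compounds called inactive have numbers as strong as hits; many hits fall short of the cut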
Target sequence (P11940 whole entry, looked up): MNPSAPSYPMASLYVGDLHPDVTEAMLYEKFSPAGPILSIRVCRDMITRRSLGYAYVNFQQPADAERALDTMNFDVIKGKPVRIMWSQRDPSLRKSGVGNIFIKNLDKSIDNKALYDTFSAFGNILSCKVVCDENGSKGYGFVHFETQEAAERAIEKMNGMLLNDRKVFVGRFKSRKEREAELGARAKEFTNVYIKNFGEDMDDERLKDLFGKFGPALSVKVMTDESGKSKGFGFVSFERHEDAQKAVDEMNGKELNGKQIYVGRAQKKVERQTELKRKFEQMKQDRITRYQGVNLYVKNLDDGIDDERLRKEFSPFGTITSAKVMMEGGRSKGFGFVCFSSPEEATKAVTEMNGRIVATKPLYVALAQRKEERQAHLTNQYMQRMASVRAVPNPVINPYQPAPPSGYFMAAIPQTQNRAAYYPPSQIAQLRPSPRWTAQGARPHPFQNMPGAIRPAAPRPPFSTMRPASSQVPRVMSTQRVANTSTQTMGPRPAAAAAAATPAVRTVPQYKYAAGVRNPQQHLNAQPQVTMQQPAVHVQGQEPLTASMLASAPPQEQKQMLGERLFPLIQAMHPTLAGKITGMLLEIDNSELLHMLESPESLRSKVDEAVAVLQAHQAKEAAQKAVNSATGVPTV
CSC inhib: blocks cancer stem cells; hit rate 1.1% among 300,000; inhibition, % at 7.5 µM; cancer stem cell-like cells viability, luminescence;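 active = mean at 75% or more and at least half the replicates too; inconclusive = mean and replicates disagree; tested in HMLE shEcad cells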;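 also: 0% = median of negative and 100% = median of positive control wells; the first replicate is given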
Env fusion inh: blocks HIV Env-driven cell-cell fusion. AID 651610. inhibition, % at 12.3 µM. HeLa-JRFL Env/CEM21 cell fusion, luciferase. hit rate 1.1% among 360,000;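 active = mean replicate inhibition score of at least 50 and every replicate individually at or above 50; inconclusive = only one of the two criteria met; inactive = mean below 50 and not all replicates reaching 50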;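 also: 0% = plate neutral controls and 100% = maraviroc near 300 nM; one replicate is shown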
MT1-MMP act inh: MT1-MMP (human) activation inhibition; P50281; GFP/RFP ratio change, % at 20 µM; hit rate 0.061% among 360,000; HT1080 RFP-PRO-GFP cells, GFP/RFP ratio fluorescence, overnight; percent of plate control window, DMSO zero;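 active = GFP/RFP ratio change of at least 30% with cell ATP level not reduced by more than half and red fluorescence within 50% of control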; also: strong numbers were not always called active
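Material – HT1080 RFP-PRO-GFP cells · Control set – DMSO wells and RFP-L50D-GFP cells · Incubation – overnight cell settling, then overnight compound exposure, 37 °C, 5% CO2 · Compound dosing – single-point 20 µM compound, 1% DMSO · Read-out – GFP/RFP fluorescence ratio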
eIF4H inh retest: second read-out of eIF4H inh, no call of its own (marks repeat the call); inhibition, %; compound at 20 µM; confirmation average;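 mean of two retest wells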
PABP FP inh retest: recorded beside PABP FP inh, whose call it bears; inhibition, %; compound at 20 µM; confirmation repeats;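 mean of two retest wells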
MT1-MMP act inh RFP: second read-out of MT1-MMP act inh, no call of its own (marks repeat the call); RFP signal change, %; measured here: RFP expression control read;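 0 = vehicle wells; hits needed this value within 50% of zero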
The depositor's hits bear a star; i = inactive; ? = inconclusive; . = not tested or not shown. No enrichment for hits. About 2.9% of those tested had a hit in this group.

The first 5 compounds (preview)
SMILES	UUG fidelity	eIF4H inh	Rce1 inh	PABP FP inh	CSC inhib	Env fusion inh	MT1-MMP act inh	MT1-MMP act inh RFP	others
CN(c1ccccc1)c1cc(Br)nc(Br)c1	.	.	i	.	9	30	-5	-7
O=C(CNCc1ccccc1Cl)Nc1ccccc1N1CCCCC1	-10	9	i	0	22	13	1	3
CC(C)(C)OC(=O)N1CCC(NC(=O)c2[nH]cnc2C(=O)Nc2ccon2)CC1	-11	.	.	.	-14	-14	2	0
O=C(Nc1cccc(Cl)c1)NC1CC2CCC(C1)N2Cc1ccco1 (stereo not given)	.	-8	i	8	-8	-3	4	1
COc1ccc(N(Cc2ccccc2)S(=O)(=O)c2cccc(C(=O)NC3=NCCS3)c2)cc1	-12	-7	i	3	25	-70	-8	-10

The listing, repeating the preview:
SMILES	UUG fidelity	eIF4H inh	Rce1 inh	PABP FP inh	CSC inhib	Env fusion inh	MT1-MMP act inh	MT1-MMP act inh RFP	others
CN(c1ccccc1)c1cc(Br)nc(Br)c1	.	.	i	.	9	30	-5	-7
O=C(CNCc1ccccc1Cl)Nc1ccccc1N1CCCCC1	-10	9	i	0	22	13	1	3
CC(C)(C)OC(=O)N1CCC(NC(=O)c2[nH]cnc2C(=O)Nc2ccon2)CC1	-11	.	.	.	-14	-14	2	0
O=C(Nc1cccc(Cl)c1)NC1CC2CCC(C1)N2Cc1ccco1 (stereo not given)	.	-8	i	8	-8	-3	4	1
COc1ccc(N(Cc2ccccc2)S(=O)(=O)c2cccc(C(=O)NC3=NCCS3)c2)cc1	-12	-7	i	3	25	-70	-8	-10
c1coc(-c2nc3nc4ccccc4nc3n2CC2CCCO2)c1 (stereo not given)	.	?	i	?	6	-23	-40	8
Cc1ccc(S(=O)(=O)N(C)CC(=O)NNC(=O)Cc2ccccc2F)cc1	0	.	.	.	2	19	0	-3
CCOC(=O)c1cnc(SCC(=O)Nc2cc(OC)cc(OC)c2)nc1N	-11	-7	i	-2	1	-21	15	-12
CC1=NNC(=O)C1CCC(=O)N/N=C\c1ccc(Cl)c(Cl)c1 (stereo not given)	-8	8	i	11	1	5	0	4
CCOC(=O)C1CCCN(C(=O)Cn2nc(Cc3cccnc3)c3ccccc3c2=O)C1 (stereo not given)	-10	-4	i	22	-4	-6	3	6
COc1ccc(-c2cc(=O)oc3cc(OCC(=O)N(C)C4CCS(=O)(=O)C4)ccc23)cc1 (stereo not given)	-16	7	i	10	8	-2	3	2
CCOC(=O)C1CN(Cc2ccccc2)C(=O)C1=O (stereo not given)	-21	.	.	.	.	5	0	2
Cc1[nH]cnc1C(=O)N/N=C/c1c(Cl)cccc1Cl	.	-4	i	13	40	-23	2	0
O=C(/C=C/c1ccc(Cl)cc1)N(Cc1ccccc1)C1CCS(=O)(=O)C1 (stereo not given)	.	-1	i	2	-3	-40	0	-7
C[C@@H]1CN([C@H](C)CO)S(=O)(=O)c2ccc(Br)cc2O[C@H]1CN(C)C(=O)Nc1cccc(F)c1	9	.	.	.	.	-23	2	-1
Cc1ccc(S(=O)(=O)Nc2cc(C)cn(Cc3ccc(F)cc3)c2=O)cc1	-14	31	i	2	4	36	3	-1
COCC[N+]1(C)CCCCC1	-15	6	i	7	-9	3	0	5
CN(C)c1ccc(-c2ccnc3c2CC(C)(C(=O)Nc2cccc(C(F)(F)F)c2)O3)cc1 (stereo not given)	-22	.	.	.	.	22	-5	0
Cc1ccccc1CN(C)C(C)C(=O)Nc1ccccc1F (stereo not given)	.	-2	i	-5	-3	13	0	-2
O=C(NCCCN1CCOCC1)c1ccccc1NS(=O)(=O)c1cc([N+](=O)[O-])ccc1Cl	.	-1	i	-6	-3	-19	-1	4
O=C1CCC/C=C\C[C@@H](CC(=O)N(CCO)Cc2ccccc2)C(=O)NCCO1	-20	.	.	.	.	21	5	8
CNC(=O)COC(=O)c1c2c(nc3ccccc13)CCC2	.	66*	i	34	-7	-17	-4	0	eIF4H inh retest=85*;PABP FP inh retest=48
O=c1[nH]c(=S)n(C2CCCCC2)c(O)c1C=NCCN1CCOCC1	-16	-8	i	-3	-11	5	-2	0
Cc1nc2c3cnn(-c4ccc(C)c(C)c4)c3ncn2n1	.	-5	i	-7	25	.	1	2
CC(C)C(NC(=O)C(c1ccccc1)c1ccccc1)c1nc2ccccc2[nH]1 (stereo not given)	.	-4	i	3	23	.	-34	-26

Gathered by group: the entries above containing bromine
SMILES	UUG fidelity	eIF4H inh	Rce1 inh	PABP FP inh	CSC inhib	Env fusion inh	MT1-MMP act inh	MT1-MMP act inh RFP	others
CN(c1ccccc1)c1cc(Br)nc(Br)c1	.	.	i	.	9	30	-5	-7
C[C@@H]1CN([C@H](C)CO)S(=O)(=O)c2ccc(Br)cc2O[C@H]1CN(C)C(=O)Nc1cccc(F)c1	9	.	.	.	.	-23	2	-1

Additional records follow.
SMILES	UUG fidelity	eIF4H inh	Rce1 inh	PABP FP inh	CSC inhib	Env fusion inh	MT1-MMP act inh	MT1-MMP act inh RFP	others
N=C(N)N1CCN(Cc2ccccc2)CC1	.	-4	i	-3	2	.	.	.
Cc1ccc(C(=O)CSC2=NC(N)=C(C#N)C3(CCCCC3)C2C(N)=O)cc1 (stereo not given)	-16	-2	i	10	-7	-23	-1	-6
O=C1CC(C(F)(F)C(F)(F)C(F)(F)C(F)(F)F)=Nc2ccccc2N1	16	0	i	-3	-2	.	3	-2
Cc1cccc(NS(=O)(=O)c2ccc(C)c(C(=O)NCc3ccccn3)c2)c1	-3	.	.	.	.	5	2	-5
Cc1oncc1-c1csc(-c2ccccc2Cl)n1	-15	0	i	-4	3	32	0	-1
CC(CN1CCN(C)CC1)OC(=O)c1ccc(Cl)cc1 (stereo not given)	-1	-4	i	9	48	.	4	4
C/C(=N\NC(=O)CN(c1ccccc1Br)S(C)(=O)=O)c1ccc2c(c1)OCCO2	.	-3	i	1	3	14	-1	3
CCCCCOC(=O)c1ccc(NC(=O)c2ccco2)cc1	36	-6	i	10	29	14	-1	-2
Cc1nc(Cl)c(C(=O)NCCc2ccccc2)c(C)c1[N+](=O)[O-]	-11	-1	i	8	-1	-3	0	0
O=C(NC1CCCc2c1cnn2-c1ccccc1F)c1ccccn1 (stereo not given)	-4	-14	i	1	49	-33	7	-4
COc1cccc(NC(=S)N(CCCN2CCCC2)Cc2cccn2Cc2ccc(Cl)cc2)c1	-30	-11	i	2	35	13	-4	-7
Cc1cc(N2CCOCC2)nc(SCC(=O)OCc2ccccc2)n1	-6	-1	i	-14	-3	19	0	3
CCc1ccc(C(C)NC(=O)C2CCCO2)cc1 (stereo not given)	2	-6	i	5	.	-12	0	-2
C=C(c1cccc2ccccc12)P(=O)(O)O	-11	10	i	16	-12	.	-2	1
COc1ccc(CNC(=O)c2ccc(N3CCC4(CC3)CC(c3ccc(Cl)cc3)=NO4)c(NC(=O)Cc3ccc(F)cc3)c2)cc1	-12	.	.	.	0	?	0	1
CC(C)(C)c1[nH]nc2c1C(c1ccco1)C(C#N)=C(N)O2 (stereo not given)	.	-10	i	0	-12	6	0	2
Cc1ccnc(NC(=O)COC(=O)C23CC4CC(CC(C4)C2)C3)n1	-14	18	i	8	.	4	-1	1
CCn1c(SCC(=O)NC2CCCCC2)nnc1-c1cc2cccc(OC)c2o1	5	-6	i	-6	-5	.	2	-12
COc1ccc(OC)c(NC(=O)CSc2nncc3ccc(OC)c(OC)c23)c1	.	1	i	0	-12	10	-5	-2
Cc1c(Br)c([N+](=O)[O-])nn1CC(=O)Nc1ccc(Cc2ccncc2)cc1	.	-1	i	0	8	29	4	-9
CN1CCN(S(=O)(=O)c2cccc(C(=O)NC3CCCc4ccccc43)c2)CC1 (stereo not given)	-19	-2	i	0	-3	.	2	5
Cc1ccc(NC(=O)CN2CCc3ccccc3C2)cc1	-14	-5	i	-13	-2	-14	2	2
C=CCN1C(=O)CN=C1Nc1cc(C)ccc1C	8	-6	i	10	-2	3	-10	-4
Cc1cccc(NC(=O)CSc2nnc(CNC(=O)c3ccc(S(=O)(=O)N(C)C)cc3)n2-c2ccccc2)c1	1	9	i	-7	-11	-34	1	-1
CNC(=O)/C(C#N)=C/c1c(N2CCN(C)CC2)nc2c(C)cccn2c1=O	-9	4	i	9	-9	1	-4	-3
Carrying on.
SMILES	UUG fidelity	eIF4H inh	Rce1 inh	PABP FP inh	CSC inhib	Env fusion inh	MT1-MMP act inh	MT1-MMP act inh RFP	others
CC1(C(=O)NCC2CC2)Cc2c(-c3ccccc3)ccnc2O1 (stereo not given)	-12	.	.	.	.	-1	3	-1
Cc1ccc(C(=O)OCCc2c(C)[nH]n(-c3ccccc3)c2=O)cc1	-12	-3	i	1	.	10	1	-2
COC(=O)c1c(-c2ccc(C)cc2)csc1NC(=O)Cc1ccc(OC)c(OC)c1	.	-14	i	5	.	.	-6	-18
Cc1cc2oc(=O)c3c(c2cc1OCc1nn[nH]n1)CCCC3	-29	3	.	34	-1	4	-3	-4
COC(=O)c1cccc(Cn2c(Cl)c(/C=N/NC(=O)c3ccco3)sc2=O)c1	.	-4	i	10	0	11	-20	7
N#CCCn1cc(C(=O)Nc2cccc(C(=O)O)c2)c(-c2ccc(Cl)cc2)n1	-7	-8	i	-8	-25	7	-4	-1
Cc1cc(S(=O)(=O)Nc2ccc(C(=O)NCC(C)(C)N3CCOCC3)cc2)ccc1F	-16	1	i	-9	.	4	-1	0
CCCc1nn2c(=O)cc(COc3ccc(NC(=O)c4ccco4)cc3)nc2s1	3	-6	i	0	-4	1	2	3
Cn1c(=O)c2c(nc(CN3CCN(C(=O)c4ccco4)CC3)n2Cc2ccc(F)cc2)n(C)c1=O	-7	-7	i	-1	7	.	12	4
COc1cccc(-c2nc(-c3ccc(NC(=O)Cc4ccccc4OC)cc3)no2)c1	.	-6	.	-8	.	.	2	-6

Compounds above that have two or more sulfur atoms:
SMILES	UUG fidelity	eIF4H inh	Rce1 inh	PABP FP inh	CSC inhib	Env fusion inh	MT1-MMP act inh	MT1-MMP act inh RFP	others
COc1ccc(N(Cc2ccccc2)S(=O)(=O)c2cccc(C(=O)NC3=NCCS3)c2)cc1	-12	-7	i	3	25	-70	-8	-10
Cc1cccc(NC(=O)CSc2nnc(CNC(=O)c3ccc(S(=O)(=O)N(C)C)cc3)n2-c2ccccc2)c1	1	9	i	-7	-11	-34	1	-1

At a glance, some entries already given.
SMILES	UUG fidelity	eIF4H inh	Rce1 inh	PABP FP inh	CSC inhib	Env fusion inh	MT1-MMP act inh	MT1-MMP act inh RFP	others
Cn1c(=O)c2c(nc(CN3CCN(C(=O)c4ccco4)CC3)n2Cc2ccc(F)cc2)n(C)c1=O	-7	-7	i	-1	7	.	12	4
COc1cccc(-c2nc(-c3ccc(NC(=O)Cc4ccccc4OC)cc3)no2)c1	.	-6	.	-8	.	.	2	-6
